# MT1-MMP act inh = blocks activation of human MT1-MMP; P50281; HT1080 RFP-PRO-GFP cells, GFP/RFP ratio fluorescence, overnight; percent of plate control window, DMSO zero; GFP/RFP ratio change, % at 20 µM; 360,000 tested, 0.061% active;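 active = GFP/RFP ratio change of at least 30% with cell ATP level not reduced by more than half and red fluorescence within 50% of control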; also: strong numbers were not always called active
#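 Assay system: RFP-PRO-GFP reporter HT1080 cells; read-out basis: GFP/RFP fluorescence ratio; benchmarks: DMSO wells and RFP-L50D-GFP cells; doses: 20 µM single dose, 1% DMSO; schedule: overnight cell settling, then overnight compound exposure, 37 °C, 5% CO2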
# Env fusion inh = blocks HIV Env-driven cell-cell fusion; HeLa-JRFL Env/CEM21 cell fusion, luciferase; inhibition, % at 12.3 µM; 360,000 tested, 1.1% active;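 active = mean replicate inhibition score of at least 50 and every replicate individually at or above 50; inconclusive = only one of the two criteria met; inactive = mean below 50 and not all replicates reaching 50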;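 also: 0% = plate neutral controls and 100% = maraviroc near 300 nM; one replicate is shown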
# CSC inhib = cancer stem cell inhibition. inhibition, % at 7.5 µM. AID 2717. 300,000 tested, 1.1% active. cancer stem cell-like cells viability, luminescence;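 active = mean at 75% or more and at least half the replicates too; inconclusive = mean and replicates disagree; tested in HMLE shEcad cells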;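 also: 0% = median of negative and 100% = median of positive control wells; the first replicate is given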
# eIF4H FP inh = inhibitors of RNA binding by human eIF4H | Q15056 | eIF4H fluorescence polarization binding assay | inhibition, % at 35 µM | 290,000 tested, 0.94% active | AID 2012;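 active = 50% or more with normal probe brightness, or confirmed in later tests; inconclusive = above 50% with abnormal brightness, or retests that disagree; inactive = below 50% or failed in later tests; about a fifth of its hits are not listed in these tables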;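 also: calls also rest on retests at 20 µM and on dose response follow-up; 0% = protein and probe with vehicle and 100% = probe without protein; strong numbers were not always called active; many hits fall short of the cut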
# PABP polyA inh = blocks human PABP binding to poly(A) RNA; inhibition, % at 35 µM; P11940; fluorescence polarization; AID 2014; 290,000 tested, 1% active;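 active = 50% or more with normal probe brightness, or confirmed in later tests; inconclusive = above 50% with abnormal brightness, or retests that disagree; inactive = below 50% or failed in later tests; about a fifth of its hits are not listed in these tables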;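 also: calls also rest on retests at 20 µM and on dose response follow-up; controls were probe without protein and protein plus probe with vehicle; some compounds called inactive have numbers as strong as hits; many hits fall short of the cut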
# Target sequence (P11940 whole entry, looked up): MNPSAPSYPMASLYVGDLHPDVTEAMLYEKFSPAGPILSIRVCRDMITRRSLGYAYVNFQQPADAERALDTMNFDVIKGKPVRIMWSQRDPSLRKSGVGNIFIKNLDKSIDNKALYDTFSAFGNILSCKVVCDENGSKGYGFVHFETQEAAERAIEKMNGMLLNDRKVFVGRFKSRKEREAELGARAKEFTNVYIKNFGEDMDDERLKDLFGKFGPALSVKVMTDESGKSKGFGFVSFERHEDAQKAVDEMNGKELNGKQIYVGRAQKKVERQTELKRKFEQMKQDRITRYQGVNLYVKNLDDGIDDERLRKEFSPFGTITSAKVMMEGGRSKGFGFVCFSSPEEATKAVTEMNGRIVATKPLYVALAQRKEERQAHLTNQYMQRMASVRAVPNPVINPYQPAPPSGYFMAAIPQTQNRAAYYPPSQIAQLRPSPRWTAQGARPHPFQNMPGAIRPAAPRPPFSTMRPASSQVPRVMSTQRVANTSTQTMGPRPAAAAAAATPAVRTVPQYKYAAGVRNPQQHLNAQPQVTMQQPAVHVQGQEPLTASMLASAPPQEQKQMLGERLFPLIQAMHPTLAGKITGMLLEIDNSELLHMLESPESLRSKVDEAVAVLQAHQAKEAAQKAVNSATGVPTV
# UUG fidelity = modulators of start codon recognition fidelity in yeast; S. cerevisiae UUG-firefly luciferase reporter, luminescence/redox ratio; activity score, % at 18.7 µM; 350,000 tested, 0.13% active; AID 602363;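 active = replicate mean at a twofold rise or more, about +100% in these data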;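 also: firefly luciferase made from a UUG start codon reports start codon fidelity; reporter light over untreated wells divided by growth signal over untreated wells; some hits fall short of that in this replicate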
# Rce1 inhib = inhibitors of yeast Ras-converting enzyme; Q03530; yeast membranes, quenched prenylated peptide cleavage fluorescence; calls only; 290,000 tested, 0.27% active; AID 2563;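 active = fall in fluorescence gain of 50% or more versus controls, with final raw signal at or below 3038400; inconclusive = same 50% fall but final raw signal above 3038400; inactive = fall in fluorescence gain under 50%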;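 also: plate controls were neutral control wells for no effect and wells lacking membranes for full effect; tested at 10 µM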
# eIF4H FP inh retest = second read-out of eIF4H FP inh, no call of its own (marks repeat the call); inhibition, %; compound at 20 µM; confirmation average;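 mean of two retest wells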
# PABP polyA inh retest = further read-out of PABP polyA inh, marked with its call; inhibition, %; compound at 20 µM; confirmation repeats;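 mean of two retest wells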
# MT1-MMP act inh RFP = second read-out of MT1-MMP act inh, no call of its own (marks repeat the call); RFP signal change, %; measured here: RFP expression control read;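 0 = vehicle wells; hits needed this value within 50% of zero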
# The depositor's hits bear a star; i = inactive; ? = inconclusive; / = no result given; & = joins results of further samples; [ ] = another dose, or the depositor's remark. Hits appear at their usual frequency. Share with any hit: about 3%.
SMILES,MT1-MMP act inh,MT1-MMP act inh RFP,Env fusion inh,CSC inhib,eIF4H FP inh,PABP polyA inh,UUG fidelity,Rce1 inhib,others
Cc1ccccc1C(=O)N1CCC(C(=O)Oc2ccc(C#N)cc2)CC1,3,5,-3,-4,-16,-8,-14,i,
Cc1ccc(NC(=S)Nc2c(C)n(C)n(-c3ccccc3)c2=O)cc1,0,2,-9,5,-11,-6,/,i,
COCCNC(=O)c1cc2c(c(-c3cccc(-c4cc5ccccc5o4)c3)n1)[C@H](CCO)N(S(=O)C(C)(C)C)C2 (some centres not stated),-1,-1,32,/,/,/,-8,/,
CCc1ccccc1Oc1coc2cc(O)ccc2c1=O,-4,-1,-4,-8,2,-2,-13,i,
COc1ccc(C(=O)N[C@H](C(=O)Nc2ccc(S(=O)(=O)N3CCOCC3)cc2)C(C)C)cc1,-5,-5,4,-11,-10,12,/,i,
COCc1ccc([C@@H]2C[C@H]3CN(Cc4cccnc4)C(=O)[C@]34CCCN24)o1,1,2,20,-4,33,12,/,i,
N#Cc1nc(-c2ccco2)oc1N1CCN(Cc2ccccc2)CC1,6,-3,/,-13,-1,-3,-12,i,
NC(=O)Cc1nc(-c2ccc(F)cc2)cs1,-2,4,-4,-14,-1,8,/,i,
Cc1ccc(NC(=O)c2ccccc2N(C)S(=O)(=O)c2ccccc2)c(C)c1,0,-2,/,1,-9,-3,2,i,
COc1ccc(C2=NNC(=Nc3cc(S(=O)(=O)N(C)C)ccc3C)SC2)c(OC)c1,-9,-25,67*,1,-3,0,-17,i,
CN(c1ccc(C(=O)N2CCCCCC2)cc1)S(=O)(=O)c1ccccc1,-2,-19,/,39,/,/,-11,/,
Cc1cc2nc(-c3cccc(Br)c3)c(Cc3ccccc3)n2c(C)c1Br,3,2,-25,/,/,/,3,/,
O=C1CCCCC(=O)N(c2ccccc2)c2ccccc21,10,3,-3,-16,0,-1,-7,i,
O=C(NCCS(=O)(=O)NC1CCCCC1)c1ccc2c(c1)OCO2,-8,-2,-31,/,/,/,-7,i,
Cc1ccc(C)c(S(=O)(=O)N2CCCCC2CCNC(=O)C(=O)NCc2ccncc2)c1 (configuration not stated),-2,-18,-115,-5,/,/,-10,i,
CC1(C(=O)O)COC(c2ccc(Cl)cc2)OC1 (configuration not stated),-2,1,9,-6,5,8,-5,i,
COc1ccc(Nc2ccccc2NC(=O)c2ccccc2Br)cc1,2,3,-8,6,-10,-9,6,i,
N#Cc1cnn2c1nc(N1CCOCC1)c1ccccc12,7,8,-101,-7,-1,-6,-17,i,
O=C(Oc1ccccc1/C=C\C(=O)c1cc2ccccc2o1)c1cccc(F)c1,-8,-6,-30,17,2,-6,/,i,
Nc1nonc1OCCOCCOCCOc1nonc1N,-1,3,-12,/,1,-13,/,i,
CC(NC(=O)c1cccc(F)c1)C1CC2CCC1C2 (configuration not stated),1,1,18,-13,/,/,-21,i,
O=C(O)c1ccc(NCc2nc3ccccc3n2Cc2ccccc2)cc1,3,0,-11,-12,7,5,/,i,
O=C(C[n+]1cc(-c2ccccc2)n2c1CCCCC2)c1ccc(Cl)cc1,-6,-7,-33,3,-3,-5,-1,i,
CN(C)S(=O)(=O)c1ccc(Cl)c(NC(=O)COC(=O)CNS(=O)(=O)c2c(F)cccc2F)c1,0,1,0,/,/,/,-2,/,
O=C(NCc1ccco1)C1CC2CCC1C2 (configuration not stated),2,-4,/,/,0,-11,-11,i,
Cc1cccc(N2CC(C(=O)Nc3nnc(SCC(=O)NCC4CCCO4)s3)CC2=O)c1 (configuration not stated),-4,3,-22,-2,26,14,2,i,
Nc1c(C2=NCCO2)nnn1Cc1ccccc1,3,9,-80,3,6,6,-9,i,
COc1ccc(CNC(=O)c2c[nH]c3c(OC)cc(OC)cc3c2=O)cc1,5,-4,-1,62,-2,10,-14,i,
O=C1C=C(c2ccc3ccccc3c2)C[C@@H](c2ccc(Cl)cc2)C1,2,-2,14,49,/,/,-15,/,
FC(F)(F)c1cccc(N/N=C/c2ccccc2)c1,-2,-1,-68,39,-12,3,-6,/,
O=C1CC(c2ccccc2Cl)CC(O)=C1C=Nc1ccccc1 (configuration not stated),5,0,/,7,-6,-8,/,i,
O=C(NCc1cccs1)C1CCN(S(=O)(=O)c2ccc(Cl)cc2)CC1,-4,-1,19,-12,-8,-8,/,i,
COc1cc2c(cc1OC)CN(C(=O)/C=C/c1cccc([N+](=O)[O-])c1)CC2,2,1,2,-16,1,-1,6,i,
CCOc1cc(/C=N/NC(N)=S)cc(Br)c1OCc1ccccc1C,-14,-10,/,45,-8,7,-10,i,
CN(C)C(CNc1ncnc2sccc12)c1cccs1 (configuration not stated),-4,-1,15,-2,-11,-1,/,i,
COc1cc(NC(=O)COC(=O)/C=C/c2ccc(Cl)cc2Cl)cc(OC)c1,0,3,/,-20,3,10,-10,i,
CC(C)CNC(=O)c1ccccc1-c1ccccc1C(=O)O,-3,2,-96,-4,-9,3,-7,i,
Cc1ccccc1S(=O)(=O)Cc1ccc(C(=O)NC2CCCCC2C)o1 (configuration not stated),-2,-3,17,-13,-3,-10,/,i,
COCCNC(=S)Nc1cccc2cnccc12,0,-8,9,-9,-4,-15,/,i,
COc1ccc2nc3sc(C(=O)NCc4cccs4)c(N)c3cc2c1,/,/,/,17,9,7,/,i,
CNc1oc(-c2ccc(Cl)cc2)nc1C#N,4,6,-75,1,4,-2,/,i,
CC1(C(=O)Nc2ccccc2Br)CCN1C(=O)Cc1ccccc1Cl (configuration not stated),-1,-1,-15,/,/,/,-11,/,
Cc1ccccc1C(=O)NC(NC(=O)c1ccccc1C)c1cccc([N+](=O)[O-])c1,3,5,-5,2,-5,-5,-21,i,
Cc1ccc(C)c(-c2cc(C(=O)NCc3cccs3)c3ccccc3n2)c1,-2,-7,/,-10,-1,-9,-8,i,
CN(C)CC(C)(C)CNC(C(=O)Nc1ccc(Cl)cc1C(F)(F)F)c1ccccc1 (configuration not stated),-1,2,?,25,1,14,-13,i,
CC(C)CCC1CC(CSC(=N)N)OC1=O (configuration not stated),2,4,-6,3,-7,11,-15,i,
COc1ccc(-c2cc(C(=O)NCc3cccc(Cl)c3)[nH]n2)c(C)c1,1,6,1,/,/,/,-5,/,
CCCc1nnc(SCC(=O)N2CCCC2)n1Cc1ccco1,2,5,5,5,-2,-15,/,i,
CNC(=S)N(CCc1c(C)[nH]c2ccccc12)Cc1cccnc1,2,2,-5,19,-10,2,-5,i,
COc1ccc(S(=O)(=O)NC(=O)C2(C)CCN2C(=O)Cc2cc(F)ccc2F)cc1 (configuration not stated),2,3,-21,/,/,/,-15,/,

# Later entries.
SMILES,MT1-MMP act inh,MT1-MMP act inh RFP,Env fusion inh,CSC inhib,eIF4H FP inh,PABP polyA inh,UUG fidelity,Rce1 inhib,others
COc1cc(CC(=O)OCC(=O)N(C)C2CCCCC2)cc(OC)c1OC,2,-1,/,0,/,/,0,/,
COCCCN1C(=O)C(=O)/C(=C(/O)c2ccc3c(c2)OCCO3)C1c1ccc(C(=O)OC)cc1 (configuration not stated),4,5,/,/,-13,9,-13,i,
COc1ccc(NC2CCCN(C(=O)c3oc(C)cc3C)C2)cc1OC (configuration not stated),1,3,-20,-2,0,6,-8,i,
CC1=CC(c2ccccc2)n2ncnc2N1 (configuration not stated),0,0,15,5,/,/,3,i,
C=CCN1C(=O)C(CC(=O)Nc2ccc(OC)cc2)SC1=Nc1ccc(S(N)(=O)=O)cc1 (configuration not stated),5,7,-15,-5,5,4,/,i,
CC1CN(CCOc2ccc([N+](=O)[O-])cc2)CC(C)O1 (configuration not stated),-1,3,-16,-10,-4,-12,-11,i,
COc1cc(CNC(C)(C)CO)cc(Br)c1OCc1ccc(Cl)cc1,-16,-13,/,35,2,-4,4,i,
OCC1(CO)COC(c2ccccc2)=N1,3,0,-4,-3,-6,1,/,i,
CC(CS(=O)(=O)c1ccc2c(c1)NC(=O)CS2)C(=O)N1CCN(c2cccc(Cl)c2)CC1 (configuration not stated),6,-4,3,-11,74*,34*,-10,i,eIF4H FP inh retest=79*;PABP polyA inh retest=56*
CCCNc1nc2c(c(=O)[nH]c(=O)n2C)n1CCCc1ccccc1,4,-2,/,0,-6,6,6,i,
CN1CC=C2C(C#N)=C(N)C(C#N)(C#N)C(c3cccc(Cl)c3Cl)C2C1 (configuration not stated),-46,8,/,28,122*,116,/,i,eIF4H FP inh retest=79*;PABP polyA inh retest=28
O=C1CCCN1CCCNCC(O)c1ccccc1 (configuration not stated),1,0,-14,-3,-4,-1,-4,i,
O=C(NC1CCCc2ccccc21)C1CCCO1 (configuration not stated),5,4,/,-8,-7,1,/,i,
O=C(NCc1ccccc1)C1=C[C@H](c2ccc3c(c2)OCO3)C[C@H](OCCCCO)O1,-2,2,-4[16.7 µM],13,-5,8,-15&-10,i,
CCOC(=O)Cn1nc(-c2ccccc2)c(-c2ccccc2)nc1=O,0,-1,15,1,1,3,-12,i,
Cc1ccc(OCc2nn3c(-c4ccco4)nnc3s2)cc1,0,-2,/,0,-5,1,-20,/,
O=C(COC(=O)CCS(=O)(=O)c1ccc(Cl)cc1)NCCc1ccccc1,3,4,/,/,-1,-6,-11,i,
O=C(NCCc1ccc(C(F)(F)F)cc1)C1CCC(=O)N(CCc2cccc(F)c2)C1 (configuration not stated),4,1,14,-11,-12,-13,6,i,
COc1ccc(OC)c(NC(=O)c2ccccc2OC(C)=O)c1,2,0,-39,4,/,/,4,i,
CCN(CC)S(=O)(=O)c1cccc(NC(=O)COc2ncnc3sccc23)c1,5,-5,4,-8,-5,11,/,i,

# Reprinted from the part before: 2 compounds, then new ones.
SMILES,MT1-MMP act inh,MT1-MMP act inh RFP,Env fusion inh,CSC inhib,eIF4H FP inh,PABP polyA inh,UUG fidelity,Rce1 inhib,others
COc1ccc(OC)c(NC(=O)c2ccccc2OC(C)=O)c1,2,0,-39,4,/,/,4,i,
CCN(CC)S(=O)(=O)c1cccc(NC(=O)COc2ncnc3sccc23)c1,5,-5,4,-8,-5,11,/,i,
Cc1cc(/C=C\c2ccc3cc(N(C)C)ccc3[n+]2C)c(C)n1-c1ccccc1,15,57,/,88*,/,/,-17,/,
COc1ccc(CNC(=O)c2ccccc2C(=O)O)cc1,0,2,17,-4,14,-3,/,i,
Cc1ccc(C(CC(=O)O)NC(=O)CN2C(=O)c3ccccc3C2=O)cc1 (configuration not stated),2,5,7,-3,6,5,-15,i,
COc1ccc(C(=O)NC(C(=O)NCc2ccccn2)C(C)C)cc1 (configuration not stated),2,6,-48,-3,5,4,/,i,
O=C(OCc1ccccc1)N1CCC2CC1c1cc(N3CCN(S(=O)(=O)c4cccc5ccccc45)CC3)ccc12 (configuration not stated),5,-2,-1,/,/,/,-6,/,
O=C(COc1ccc(Cl)cc1)N(Cc1ccccc1)c1ccccn1,-1,-3,/,2,7,-6,-2,i,
CCCCCCSc1nc(O)c(C2OC(=O)c3c2ccc(OC)c3OC)c(=O)n1-c1ccccc1 (configuration not stated),1,1,/,16,6,6,0,i,
Cc1nnc(SCC(=O)Nc2c(C)n(C)n(-c3ccccc3)c2=O)n1Cc1ccccc1,1,2,-5,-3,-2,-7,/,i,
OCC1(Cc2ccc(Cl)cc2)CCN(Cc2ccccc2F)CC1,6,2,10,21,-1,2,1,i,
O=C(COc1ccc2ccccc2c1)NNC(=O)Nc1ccccc1F,-4,1,3,-7,-10,-4,-14,i,

# Screening results as filed in PubChem BioAssay.
